Screening data as filed in PubChem BioAssay.
LAP4 TOR yeast = alters LAP4-GFP fluorescence in TOR pathway yeast screen; 320,000 tested, 0.34% active; GFP response vs DMSO, % at 10 µM; AID 2023; S. cerevisiae LAP4-GFP multiplex, flow cytometry GFP, 3 h; median GFP as percent of DMSO wells;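 active = GFP response vs DMSO above a set limit, about the screen mean plus 3 SD, cut at about 150% in these data; inconclusive = under 70 cell events counted for the yeast strain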
JMJD2C inh = human JMJD2C demethylase inhibition; Q9H3R0; GST-JMJD2C(1-420) H3K9me3 demethylation, DELFIA europium; inhibition, % at 2.35 µM; 330,000 tested, 0.069% active;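 active = more than half of a compound's replicate wells show inhibition beyond 50%, single wells judged on their own value; inconclusive = some, but no more than half, of replicates pass 50% inhibition; inactive = no replicate passes 50% inhibition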;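 also: signal counts dimethyl H3K9 product captured on neutravidin plate; 0% = median of DMSO wells and 100% = 0.3 times that DMSO median; strong numbers were not always called active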
CR mimetic SO = lowers age-related superoxide in aged yeast cells; 330,000 tested, 0.18% active; superoxide response (% of plate mean), % at 10 µM; S. cerevisiae aged cells, superoxide DHE fluorescence; hits give low values;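 active = superoxide response under a set limit, about three screen SD below normal, cut at about 65% in these data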;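 also: yeast aged for seven days with compound at 30 °C before DHE staining; 100% = average MFI of all compound-treated wells on the plate with controls excluded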
proCasp7 act = activates human procaspase-7, counter-screen for procaspase-3 activators | recombinant procaspase-7, Ac-DEVD-pNA absorbance 405 nm; D23A/D198A/D206A triple mutant, cannot self-cleave; scale: DMSO 0, 5 µM enzyme 100 | activation, % at 8.5 µM | 330,000 tested, 0.093% active | AID 463210;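 active = percent activation above the screen-wide mean plus 3 SD, cut at about 25% in these data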
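Assay system – Uncleavable procaspase-7 mutant enzyme · Quantity – 2 µM procaspase-7 mutant as dispensed · Times – 1 h preincubation, 2 h reaction · Dosing – single nominal 8.5 µM compound dose, 0.8% DMSO final · Buffer or medium – Zinc-free 50 mM HEPES buffer, pH 7.4, with NaCl and Triton X-100 · Detection – Epi-absorbance of released pNA at 405 nm, two timepoints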
RPL19A TOR yeast = modulators of TOR pathway RPL19A-GFP in S. cerevisiae | S. cerevisiae RPL19A-GFP strain, flow cytometry, 3 h; hits give low values | AID 2025 | percent response vs DMSO, % at 10 µM | 330,000 tested, 0.3% active;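 active = percent response vs DMSO below 50%; inconclusive = fewer than 70 events counted for the yeast strain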;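 also: median channel GFP fluorescence of the barcoded RPL19A-GFP strain; ratio of sample median GFP to plate DMSO average so 100% = DMSO; lower means less RPL19A-GFP as with rapamycin TOR inhibition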
AHR activator = activators of human aryl hydrocarbon receptor; P35869; 320,000 tested, 2.5% active; activation, % at 5 µM; AHR-responsive luciferase reporter cells, luminescence; in the data active = activation above about 47%;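 also: 0% = vehicle wells and 100% = reference agonist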
Target sequence (P35869 whole entry, looked up): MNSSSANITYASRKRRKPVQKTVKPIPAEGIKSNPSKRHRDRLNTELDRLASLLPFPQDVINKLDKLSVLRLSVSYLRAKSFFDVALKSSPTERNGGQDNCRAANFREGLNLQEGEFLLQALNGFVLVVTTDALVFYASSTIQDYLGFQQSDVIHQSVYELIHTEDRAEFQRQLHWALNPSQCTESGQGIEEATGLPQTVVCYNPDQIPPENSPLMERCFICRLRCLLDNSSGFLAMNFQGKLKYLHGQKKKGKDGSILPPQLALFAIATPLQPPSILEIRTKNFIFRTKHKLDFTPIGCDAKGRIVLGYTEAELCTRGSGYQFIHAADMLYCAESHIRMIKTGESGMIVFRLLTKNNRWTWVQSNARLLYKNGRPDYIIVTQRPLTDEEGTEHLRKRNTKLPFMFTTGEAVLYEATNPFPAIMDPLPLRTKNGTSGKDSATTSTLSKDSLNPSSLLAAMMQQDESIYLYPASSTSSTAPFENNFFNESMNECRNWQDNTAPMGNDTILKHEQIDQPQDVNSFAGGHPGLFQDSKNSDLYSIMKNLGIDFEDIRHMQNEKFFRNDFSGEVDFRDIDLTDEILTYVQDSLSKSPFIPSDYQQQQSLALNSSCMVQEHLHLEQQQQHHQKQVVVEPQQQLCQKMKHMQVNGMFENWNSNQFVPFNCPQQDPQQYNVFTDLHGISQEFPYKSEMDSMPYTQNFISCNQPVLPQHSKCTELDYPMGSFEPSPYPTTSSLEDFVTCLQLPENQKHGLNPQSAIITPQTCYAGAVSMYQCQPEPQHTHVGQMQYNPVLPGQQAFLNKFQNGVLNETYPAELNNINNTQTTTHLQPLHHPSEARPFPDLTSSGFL
MEP2-GFP yeast = alters MEP2-GFP fluorescence in TOR pathway yeast screen; S. cerevisiae MEP2-GFP strain, flow cytometry GFP, 3 h; 100% = DMSO control level; GFP response vs DMSO, % at 10 µM; 330,000 tested, 0.51% active; AID 2016;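 active = GFP response versus DMSO above a set limit, roughly screen mean plus 3 SD, cut at about 180% in these data; inconclusive = fewer than 70 cells counted for a yeast strain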;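 also: median GFP fluorescence of the barcode-gated MEP2-GFP cells per well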
Numbers without * were called inactive; i = inactive; ? = inconclusive; . = no result given; [ ] = dose if it differs, or a comment. These rows are one share of the data (hit frequency here may not be typical).

SMILES | LAP4 TOR yeast | JMJD2C inh | CR mimetic SO | proCasp7 act | RPL19A TOR yeast | AHR activator | MEP2-GFP yeast
Cc1ccc(C(=O)Nc2sc3c(c2C(=O)O)CCC(C)C3)o1 (configuration not stated) | 87 | 11 | 94 | 5 | 97 | 41 | 90
O=C(Nc1ccccn1)Nc1ccccc1[N+](=O)[O-] | 105 | 3 | 109 | -5 | 101 | 49* | 101
Cc1nc2cc(-c3ccccc3)nn2c(N)c1-c1ccccc1 | 102 | 1 | 85 | 11 | 95 | -7 | 101
COc1ccc(C(=O)Nc2ccc(Nc3ccccc3)cc2)cc1OC | 87 | -2 | 99 | 5 | 103 | -1 | 106
COc1ccc(C)cc1NC(=O)Nc1ccncc1 | 103 | 0 | 107 | 9 | 102 | 1 | 98
O=C(O)c1cccc(NC(=S)NC(=O)c2ccc(-c3ccccc3)cc2)c1 | 99 | i | 104 | -7 | 95 | -3 | 99
COc1ccc(CCNC(=O)c2cccn2C)cc1 | 104 | 7 | 97 | 12 | 102 | 3 | 97
COc1ccc(C(=O)Nc2cccc(C(C)=O)c2)cc1OC | 100 | 2 | 91 | 4 | 97 | 12 | 103
O=C(Nc1cccnc1)c1ccc(CSc2ccccc2)cc1 | 95 | 4 | 94 | 11 | 87 | 14 | 100
O=C(C#Cc1ccccc1)Nc1ccccc1F | 98 | 0 | 94 | -7 | 99 | -2 | 104
Cc1c(C(=O)Nc2ccccc2[N+](=O)[O-])csc1-c1ccccc1 | 100 | -2 | 100 | 0 | 103 | 122* | 104
COC(=O)CCC(=O)OC1(C)C(=O)C=C2C=C(C3CC3)N(CCCOC(C)C)C=C2C1=O (configuration not stated) | 119 | -16 | 105 | -13 | 90 | 1 | 84
Cc1cc(C(=O)OCC(=O)c2ccc3c(c2)OCCO3)c(C)o1 | 112 | 2 | 107 | 1 | 100 | 0 | 104
CC(C)(C)c1ccc(C(=O)NCCOc2ccccc2)cc1 | 83 | 5 | 94 | 3 | 101 | 4 | 96
CCOc1ccc(-c2cccc(NS(=O)(=O)c3cc([N+](=O)[O-])ccc3Cl)c2)nn1 | 104 | 8 | 102 | 5 | 95 | 2 | 90
CC(=O)Oc1ccc(C)cc1-n1nc2ccccc2n1 | 104 | -2 | 92 | 12 | 104 | 33 | 105
COc1ccc(NC(=O)c2ccc(Br)o2)c([N+](=O)[O-])c1 | 99 | 0 | 96 | -6 | 100 | -2 | 105
CCc1ccccc1NC(=O)Nc1ccc(F)cc1 | 96 | 15 | 83 | -6 | 102 | 9 | 101
Cc1nc2c(-c3ccc(F)cc3)cnn2c(N)c1-c1ccccc1 | 165* | -14 | 106 | 0 | 90 | -7 | 111
O=C(Nc1ccc([N+](=O)[O-])cn1)c1ccc(Br)o1 | 84 | -1 | 92 | -5 | 97 | -4 | 97

An excerpt from above in order of their number in MEP2-GFP yeast, descending.
| structure | MEP2-GFP yeast |
| --- | --- |
| Cc1nc2c(-c3ccc(F)cc3)cnn2c(N)c1-c1ccccc1 | 111 |
| COc1ccc(NC(=O)c2ccc(Br)o2)c([N+](=O)[O-])c1 | 105 |
| Cc1cc(C(=O)OCC(=O)c2ccc3c(c2)OCCO3)c(C)o1 | 104 |
| CCc1ccccc1NC(=O)Nc1ccc(F)cc1 | 101 |
| CC(C)(C)c1ccc(C(=O)NCCOc2ccccc2)cc1 | 96 |
| CCOc1ccc(-c2cccc(NS(=O)(=O)c3cc([N+](=O)[O-])ccc3Cl)c2)nn1 | 90 |
| COC(=O)CCC(=O)OC1(C)C(=O)C=C2C=C(C3CC3)N(CCCOC(C)C)C=C2C1=O (configuration not stated) | 84 |

(cont.)
SMILES | LAP4 TOR yeast | JMJD2C inh | CR mimetic SO | proCasp7 act | RPL19A TOR yeast | AHR activator | MEP2-GFP yeast
CCC(=O)Nc1ccc2nc(C3CC3)n(Cc3ccccc3)c(=O)c2c1 | 100 | -10 | 117 | 11 | 102 | -1 | 105
Fc1ccc(-c2cn3ccccc3n2)cc1 | 81[may fluoresce violet] | 0 | 102 | -6 | 95[may fluoresce violet] | 16 | 121[may fluoresce violet]
O=C(COc1ccccc1)Nc1cccc(-c2nc3ccccc3[nH]2)c1 | 98 | 0 | 106 | 3 | 102 | 79* | 104
Cn1c(SCC(=O)c2ccc(F)cc2)ncc(C(=O)Nc2ccccc2)c1=O | 120 | -4 | 100 | -15 | 99 | 29 | 98
CCOc1ccc(NC(=O)Nc2cc(C)ccc2OC)cc1 | 98 | 8 | 95 | -11 | 100 | -5 | 100
CSc1ccccc1-c1nc(-c2ccncc2)no1 | 86 | -7 | 108 | 6 | 96 | 20 | 97
COc1ccc(OCC(=O)Nc2ccccc2O)cc1 | 101 | -4 | 94 | 3 | 103 | 6 | 96
COC(=O)c1sccc1NC(=O)Nc1ccc(Cl)c(Cl)c1 | ? | 0 | 98 | 7 | ? | 16 | ?
O=C(Nc1ccc(Br)cc1)c1cccc(S(=O)(=O)Nc2ccccn2)c1 | 86 | 4 | 122 | 1 | 98 | 61* | 100
O=C(Nc1ccccn1)C(=O)Nc1ccccn1 | 112 | 6 | 95 | 6 | 97 | 4 | 101
CCn1c(C)cc(C(=O)COC(=O)c2ccccc2[N+](=O)[O-])c1C | 102 | 1 | 91 | -2 | 93 | 0 | 99
Cc1nc(-c2ccc(Cl)cc2)sc1C1(C)CC(c2ccccc2)=NO1 (configuration not stated) | . | 10 | . | 5 | . | 9 | .
O=C(COc1ccccc1)Nc1cccc(-c2nc3cc4ccccc4cc3[nH]2)c1 | 124[may fluoresce violet] | 30 | 130 | -3 | 63[may fluoresce violet] | 6 | 152[may fluoresce violet]
COCCn1c(C)cc(C(=O)COC(=O)c2ccccc2Br)c1C | 112 | 11 | 97 | 5 | 100 | -1 | 98
NC(=O)c1ccsc1NC(=O)COc1ccccc1 | 120 | -6 | 112 | -7 | 98 | 17 | 107
COc1ccc(-c2cc3ccccc3oc2=O)cc1 | 106 | -2 | 88 | 11 | 92 | 11 | 92
COc1ccc(-c2cc3cc4c(cc3cn2)OCO4)cc1 | 105 | 29 | 103 | -6 | 96 | 39 | 98
O=C(Nc1nc2cc3c(cc2s1)OCO3)C1=COCCO1 | 103 | 36 | 110 | -4 | 94 | -4 | 99
CC(=O)Nc1nc(COc2ccc3ccccc3c2)cs1 | 109 | 9 | 98 | 15 | 97 | 0 | 96
Cc1ccc(CNC(=O)CSc2ncc(C(=O)Nc3ccccc3)c(=O)n2C)cc1 | 95 | 1 | 101 | 0 | 100 | 10 | 100

Some of the entries above in a different format.
canonical_smiles: COc1ccc(-c2cc3ccccc3oc2=O)cc1
  LAP4 TOR yeast: 106
  JMJD2C inh: -2
  CR mimetic SO: 88
  proCasp7 act: 11
  RPL19A TOR yeast: 92
  AHR activator: 11
  MEP2-GFP yeast: 92

canonical_smiles: COc1ccc(-c2cc3cc4c(cc3cn2)OCO4)cc1
  LAP4 TOR yeast: 105
  JMJD2C inh: 29
  CR mimetic SO: 103
  proCasp7 act: -6
  RPL19A TOR yeast: 96
  AHR activator: 39
  MEP2-GFP yeast: 98

canonical_smiles: O=C(Nc1nc2cc3c(cc2s1)OCO3)C1=COCCO1
  LAP4 TOR yeast: 103
  JMJD2C inh: 36
  CR mimetic SO: 110
  proCasp7 act: -4
  RPL19A TOR yeast: 94
  AHR activator: -4
  MEP2-GFP yeast: 99

Rewritten as labelled records: 4 of the compounds above.
CCn1c(C)cc(C(=O)COC(=O)c2ccccc2[N+](=O)[O-])c1C
  LAP4 TOR yeast = 102 | JMJD2C inh = 1 | CR mimetic SO = 91 | proCasp7 act = -2 | RPL19A TOR yeast = 93 | AHR activator = 0 | MEP2-GFP yeast = 99

Cc1nc(-c2ccc(Cl)cc2)sc1C1(C)CC(c2ccccc2)=NO1 (configuration not stated)
  LAP4 TOR yeast = . | JMJD2C inh = 10 | CR mimetic SO = . | proCasp7 act = 5 | RPL19A TOR yeast = . | AHR activator = 9 | MEP2-GFP yeast = .

O=C(COc1ccccc1)Nc1cccc(-c2nc3cc4ccccc4cc3[nH]2)c1
  LAP4 TOR yeast = 124[may fluoresce violet] | JMJD2C inh = 30 | CR mimetic SO = 130 | proCasp7 act = -3 | RPL19A TOR yeast = 63[may fluoresce violet] | AHR activator = 6 | MEP2-GFP yeast = 152[may fluoresce violet]

COCCn1c(C)cc(C(=O)COC(=O)c2ccccc2Br)c1C
  LAP4 TOR yeast = 112 | JMJD2C inh = 11 | CR mimetic SO = 97 | proCasp7 act = 5 | RPL19A TOR yeast = 100 | AHR activator = -1 | MEP2-GFP yeast = 98

(cont.)
SMILES | LAP4 TOR yeast | JMJD2C inh | CR mimetic SO | proCasp7 act | RPL19A TOR yeast | AHR activator | MEP2-GFP yeast
c1ccc(C(c2nnnn2C2CCCCC2)N2CCc3ccccc3C2)nc1 (configuration not stated) | 97 | -6 | 89 | -4 | 98 | 17 | 102
Fc1ccc2cnc(-c3ccccc3)cc2c1 | 96 | 27 | 108 | 0 | 89 | 32 | 88
COc1ccc(OCc2cc(C(=O)NC3CCOC(C)(C)C3)no2)c2ccccc12 (configuration not stated) | 97 | -2 | 109 | 3 | 95 | 67* | 95
O=C(Nc1ccccc1F)Nc1ccccc1F | 93 | 0 | 126 | -6 | 100 | 25 | 99
O=C(COc1ccc2c(c1)OCO2)Nc1ccccc1F | 102 | 3 | 85 | 11 | 102 | 7 | 110
Cn1nccc1C(=O)Nc1ccc2c(c1)OCO2 | 95 | 0 | 92 | -3 | 101 | 104* | 101
Cc1ccsc1C(=O)OCC(=O)c1cc(C)n(C)c1C | 110 | -5 | 93 | 11 | 99 | 0 | 103
COc1ccc(/C=C/C(=O)OCC(=O)c2ccccc2F)cc1 | 96 | -5 | 94 | -2 | 99 | 0 | 106
Cn1c(SCC(=O)NCC2CCCO2)ncc(C(=O)Nc2ccc(F)cc2)c1=O (configuration not stated) | 112 | 25 | 99 | 16 | 94 | 51* | 96
N/C(=N\N=C\c1ccc([N+](=O)[O-])cc1)c1nonc1N | 110 | -5 | 101 | 2 | 104 | -5 | 100
C=CCNC(=O)c1ccc(CSc2nc3ccccc3s2)cc1 | 117 | 3 | 103 | 12 | 102 | 36 | 98
CC(C)(C)NC(=O)COC(=O)c1ccccc1Nc1ccc(SC(F)F)cc1 | 127 | -9 | 88 | 3 | 97 | 4 | 111
N#Cc1ccccc1N/C=C/C(=O)c1ccc(Cl)cc1 | 114 | -2 | 91 | 6 | 92 | 32 | 95
Oc1csc(Cc2nc(-c3ccccc3F)cs2)n1 | 96 | 6 | 119 | -4 | 97 | 8 | 101
O=[N+]([O-])c1cccc(-c2nc(-c3ccccn3)no2)c1 | ? | -5 | 95 | 3 | 96[may fluoresce violet] | 68* | ?
COc1cccc(NC(=O)c2ccc3c(c2)C(=O)N(CC2CCCO2)C3=O)c1 (configuration not stated) | 105 | -4 | 104 | 6 | 103 | 3 | 102
Cn1c(SCC(=O)NCc2ccc3c(c2)OCO3)ncc(C(=O)Nc2ccc(F)cc2)c1=O | 94 | -6 | 102 | -14 | 89 | 49* | 105
O=C(COc1ccc(Cl)cc1Cl)Nc1ccccc1F | 95 | 3 | 94 | 0 | 96 | -2 | 98
Cc1cc(C)n2nc(-c3ccccc3)cc2n1 | 105 | -3 | 98 | -8 | 98 | 24 | 99
Cc1ccc(NC(=O)c2cnc(SCC(=O)c3ccccc3)n(C)c2=O)cc1 | 112 | -5 | 114 | -2 | 90 | 12 | 106
O=[N+]([O-])c1ccc(-c2cn3ccccc3n2)cc1 | 108 | 0 | 95 | 6 | 96 | -2 | 100
Cc1nc(-c2ccc(C(=O)Nc3cccc(F)c3)cc2)cs1 | 93 | 14 | 103 | -3 | 101 | -13 | 105
